UUG fidelity: alters start codon recognition fidelity in yeast | activity score, % at 18.7 µM | S. cerevisiae UUG-firefly luciferase reporter, luminescence/redox ratio | 0.13% of 350,000 active;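 active = replicate mean at a twofold rise or more, about +100% in these data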;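 also: firefly luciferase made from a UUG start codon reports start codon fidelity; reporter light over untreated wells divided by growth signal over untreated wells; some hits fall short of that in this replicate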
MT1-MMP act inh: MT1-MMP (human) activation inhibition | P50281 | 0.061% of 360,000 active | HT1080 RFP-PRO-GFP cells, GFP/RFP ratio fluorescence, overnight; percent of plate control window, DMSO zero | AID 651647 | GFP/RFP ratio change, % at 20 µM;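 active = GFP/RFP ratio change of at least 30% with cell ATP level not reduced by more than half and red fluorescence within 50% of control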; also: strong numbers were not always called active
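Read-out: GFP/RFP fluorescence ratio; Test system: RFP-PRO-GFP reporter HT1080 cells; Compound dosing: single-point 20 µM compound, 1% DMSO; Times: overnight compound exposure at 37 °C.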
MT1-MMP act inh RFP: second read-out of MT1-MMP act inh, no call of its own (marks repeat the call); RFP signal change, %; measured here: RFP expression control read;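 0 = vehicle wells; hits needed this value within 50% of zero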
An asterisk follows results filed as active; & = joins results of further samples. An excerpt; count on the stated rates, not on these rows.

UUG fidelity	MT1-MMP act inh	Compound	MT1-MMP act inh RFP
-4.6	-6.0	Cc1sc2ncnc(SCC(=O)Nc3ccc(CN4CCCC4)cc3)c2c1C	-4.6
-3.3	-1.2	N#Cc1ccccc1OCC(=O)NCc1ccccc1CN1CCCC1	0.0
-6.9	-6.2	CCNC(=O)C1(C)CCN(C(=O)c2cccc3ccccc23)C1 (stereo unspecified)	-0.9
1.4	-2.0	CCCN(CC(=O)Nc1ccccc1OC)C(=O)c1ccc2c(c1)NC(=O)C(C)S2 (stereo unspecified)	-3.3
-11.3	3.6	CSc1ncccc1C(=O)Nc1cccc(S(=O)(=O)N(C)c2ccccc2)c1	-6.4
-14.9	3.7	COc1ncnc2c1ncn2CCCNCc1ccc2c(c1)OCO2	-2.6
-18.5	0.4	O=C(COC(=O)c1ccc(Br)o1)c1ccc(S(=O)(=O)N2CCCCC2)cc1	3.0
-7.4	2.0	CCn1cnnc1SCC(=O)c1c(N)n(C2CC2)c(=O)[nH]c1=O	3.3
-19.8	2.5	COc1ccc2[nH]c3c(c2c1)CCN1C(=O)C(CC(=O)NCC24CC5CC(CC(C5)C2)C4)C[C@H](C(=O)N(C(C)C)C(C)C)[C@@]31C (stereo partly specified)	-1.0
-4.3	-4.7	CN(Cc1cccc(Cl)c1Cl)C(=O)c1ccccc1SCC(=O)N1CCCC1	-7.6
-18.6	-3.3	CN(C)S(=O)(=O)c1ccc(C(=O)N2CCN(C(=O)C3CCCO3)CC2)cc1 (stereo unspecified)	1.8
-12.8	1.6	O=C(O)C1CCCCN1C(=O)c1cc2c(s1)CCCCC2 (stereo unspecified)	1.3
-8.0	-112.9	Nc1ccc2c3c(cccc13)-c1ccccc1-2	3.1
-0.9	3.3	CC1(C2CC2)NC(=O)N(CC(=O)Nc2cc(S(=O)(=O)N3CCCCC3)ccc2Cl)C1=O (stereo unspecified)	-5.6
-6.4	-0.3	O=C(NCCN1CCNC1=O)c1ccc2sc([C@H]3C[C@H](O)[C@@H](CO)O3)nc2c1	2.3
-11.8&-7.4	3.4	Cc1ccccc1S(=O)(=O)N(C)C[C@H]1OCc2cnnn2CCCC(=O)N([C@H](C)CO)C[C@H]1C	1.1
-27.8	-1.2	Cc1cc(=O)[nH]c2nc3ccccc3n12	0.8
-15.4	-1.7	Cc1cc(NC(=O)CSCC(=O)OCC(=O)Nc2ccc(OC(F)F)cc2)no1	1.9
-19.6	-0.9	Nc1ccn([C@@H]2O[C@H](CNCc3cccc(OC4CCCC4)c3)[C@@H](O)[C@H]2O)c(=O)n1	1.9
-18.4	-4.9	Cc1sc2ncnc(SCC(=O)Nc3ncccc3O)c2c1C	12.7
4.1	0.8	CN(CC(=O)NCc1ccc2c(c1)OCO2)CC(=O)Nc1ccc(F)c(F)c1F	2.3
-13.0	1.2	COC(=O)c1sc2nc(C)nc(SCC(=O)Nc3sccc3C(N)=O)c2c1C	-8.3
2.3	-0.7	Cc1cccc(C(=O)C(O)(c2ccccc2)C2CCCCC2=O)c1 (stereo unspecified)	2.6
-30.1	-0.2	COc1cccc(OC)c1C(=O)N1CCN(Cc2ccccc2F)CC1	3.6
-5.9	-3.0	Cc1ccc(OCCOC(=O)c2cc(S(=O)(=O)N3CCCCC3)ccc2N2CCOCC2)cc1	-31.4
-21.8	1.3	CC1CCN(C(=O)CN2C(=O)NC(c3ccccc3)(c3ccccc3)C2=O)CC1	2.6
-5.9	-2.0	C#CC(C)(O)C1CC(CC(=O)O)C1(C)C (stereo unspecified)	2.7
8.3	-0.1	Cc1ccc([N+](=O)[O-])cc1S(=O)(=O)Nc1ccc(C(=O)N2CCN(C(=O)c3ccco3)CC2)cc1	-3.7
-15.4	-0.7	Cc1cccc(C(=S)N2CCOCC2)n1	4.7
-6.9	-0.7	CC1(Cc2ccc(S(C)(=O)=O)cc2)C(=O)Nc2ccc(Cl)cc21 (stereo unspecified)	0.5

2 entries from above in another layout:
| structure | UUG fidelity | MT1-MMP act inh | MT1-MMP act inh RFP |
| --- | --- | --- | --- |
| CN(C)S(=O)(=O)c1ccc(C(=O)N2CCN(C(=O)C3CCCO3)CC2)cc1 (stereo unspecified) | -18.6 | -3.3 | 1.8 |
| O=C(O)C1CCCCN1C(=O)c1cc2c(s1)CCCCC2 (stereo unspecified) | -12.8 | 1.6 | 1.3 |

Further records:
UUG fidelity	MT1-MMP act inh	Compound	MT1-MMP act inh RFP
6.8	-6.7	CCCCn1c(N)c(N(Cc2ccccc2OC)C(=O)CSCC(=O)Nc2ccc(C)cc2)c(=O)[nH]c1=O	-1.7
-38.2	2.0	O=S(=O)(c1ccc(Br)cc1F)N1CC[C@H](O)C1	3.8
-2.8	-2.3	NS(=O)(=O)c1ccc(N2CCOCC2)c(C(=O)NCCCSc2ccccc2)c1	0.4
5.6	-2.2	CC[C@]1(C(=O)OC)[C@H]2C(=O)N(Cc3ccccc3)C(=O)[C@H]2[C@H]2CN(C)C(=NCc3ccccc3)N21	1.5
7.3	1.3	COc1cccc(NC(=O)CN(C)C(=O)c2ccc(NC(=O)CC3SC(N4CCCC4)=NC3=O)cc2)c1 (stereo unspecified)	3.4
-19.1	-3.2	OCC1OC(Nc2ccccc2C=NO)C(O)C1O (stereo unspecified)	4.5
0.4	1.4	Cc1noc(C)c1C(=O)Nc1ccc(S(=O)(=O)N2CCC(C)CC2)cc1	-17.0
-12.9	5.1	Cc1cc(C(=O)COC(=O)c2n[nH]c(=O)c3ccccc23)c(C)n1C	-0.1
-4.6	3.8	CCNC(=O)C1(C)CCN(Cc2cccc(C(F)(F)F)c2)C1 (stereo unspecified)	1.0
-12.4	6.6	O=C(CNC(=O)c1ccc(F)cc1)NCc1ccccn1	6.6
-3.1	-127.9	O=C(NCc1cccc(C(F)(F)F)c1)c1cccc2c1C(=O)c1ccc(N3CCC(Cc4ccccc4)CC3)cc1S2(=O)=O	-9.6
-23.3	0.7	Cc1cc(C(=O)NNC(=O)c2ccc(Cl)cc2)c2ccccc2n1	-3.2
4.8	4.5	COc1cc(C(=O)N2CCCCC2c2cc(C(=O)N3CCOCC3)no2)cc(OC)c1C (stereo unspecified)	3.7
-27.3	0.7	Cc1ccc(C)c(NC(=O)COC(=O)c2ccc(S(=O)(=O)N3CCCCC3)cc2)c1	2.6
2.3	-2.5	COc1ccc(C(=O)N2CCN(c3cccc(Cl)c3)CC2)cc1S(=O)(=O)NC1CC1	-5.0
10.1	2.4	O=C(Nc1ccc(Cl)c(S(=O)(=O)N2CCOCC2)c1)[C@@H]1CCCN1C(=O)c1cccs1	2.4
-10.8	1.8	COc1ccc(NC(=O)c2cccc3c(-c4cnn(C)c4)coc23)cc1	-2.7
0.7	1.0	CC1C(=O)CC2C3(C)CCC2(C(C)C(=O)O)C(=O)C13 (stereo unspecified)	4.1
-16.0	3.3	O=C1CCCN1C(=O)COc1cc(F)ccc1[N+](=O)[O-]	2.5
-44.5	-1.1	O=C(CN1CCN(C(=O)c2ccco2)CC1)Nc1cccc(S(=O)(=O)N2CCCC2)c1	-4.7
-29.5	-4.0	COc1ccccc1Cc1c(-c2ccc(C#N)cc2)nc2ccc(Br)cn12	-0.3
-11.6	0.3	CSCCC(NC(=O)COc1ccccc1)C(=O)N1CC(C)CC(C)C1 (stereo unspecified)	-1.6
-8.8	-1.0	COc1ccc([C@H]2C[C@H](O)[C@@H](n3cc(C4CC4)nn3)CN2CC2CCCCC2)cc1	-1.2
-9.2	4.2	O=C(/C=C/[C@H]1O[C@@H](n2ccc(=O)[nH]c2=O)[C@H](O)[C@@H]1O)NCCN1CCOCC1	4.1
-3.5	3.3	CC1=C(C(=O)N2CCCCCC2)CC(CC(=O)NCC2CCCCC2)C(=O)N1Cc1ccccc1 (stereo unspecified)	0.7
-16.6	5.5	CC1(C)CCC(=NNC(N)=S)CC1	1.0
-24.8	1.5	COc1cc(C(=O)OCc2csc(CC(=O)Nc3cc(C)ccc3C)n2)ccc1OC(F)F	3.8
-11.6	3.9	COc1cc(OC)c(C(=O)NNC(=O)c2ccc(NS(=O)(=O)c3cccs3)cc2)cc1OC	4.5
-4.0	-13.6	O=C(CN1CCCc2ccccc21)Nc1cc(S(=O)(=O)N2CCCC2)ccc1Cl	-6.3
-17.3	-5.9	Cc1onc(-c2ccccc2)c1C(=O)N1CCCC(C)(C(=O)NS(=O)(=O)C2CC2)C1 (stereo unspecified)	2.8
-7.3	-3.6	NC(c1ccccc1)c1csc(NC(=O)Nc2ccc(OC(F)(F)F)cc2)n1 (stereo unspecified)	-6.8
-9.4	1.6	O=C1C2C3C=CC(C3)C2C(=O)N1c1ncc([N+](=O)[O-])s1 (stereo unspecified)	4.6
-8.5	-2.2	CCN(C(=O)CSc1nnc(-c2ccc(OC)cc2)n1N)c1c(N)n(Cc2ccccc2)c(=O)[nH]c1=O	5.6
180.2*	3.0	CC(C)C[C@@H](CN)NC(=O)c1nc[nH]c1C(=O)N[C@@H](Cc1c[nH]c2ccccc12)C(=O)CNC[C@H](C)NC(=O)c1nc[nH]c1C(=O)N[C@@H](CC(=O)O)C(=O)O	-0.1
-7.7	-2.1	COC(=O)c1c(C)[nH]c(C(=O)COC(=O)CCNS(=O)(=O)c2cccc(C(F)(F)F)c2)c1C	3.0
-15.2	0.0	CCOc1ccccc1C=C1SC(=S)N(CC)C1=O	-3.4
-4.7	0.9	Cc1cc(C)cc(C(O)c2ncc(-c3ccc(F)cc3)[nH]2)c1 (stereo unspecified)	-1.3
-6.5	0.2	COc1ccc(-c2nn(-c3ccccc3)cc2C(=O)N(C)CC(=O)Nc2ccccc2Br)cc1	-7.7
-16.0	-4.9	CC(=O)c1ccc(N2CCN(C(=O)c3cn(Cc4ccccc4)nc3-c3cccnc3)CC2)c(F)c1	-4.8
1.1	-0.8	Cc1cc2c(cc1C)N(C(=O)CCl)CC(=O)N2	0.2
-22.7	1.6	Cc1ccc(NC(=O)c2ncn(CC(=O)NCc3ccccc3)n2)cc1C	1.8
3.9	3.7	COc1ccc(N2CCN(C(=O)COC(=O)c3oc4ccccc4c3C)CC2)cc1	-2.0
-1.3	0.0	CC(=O)Nc1ccc(NC(=O)C(C)OC(=O)c2cccs2)cc1 (stereo unspecified)	5.0
-4.2	-1.1	Cc1ccc(S(=O)(=O)N2CCN(C(=O)c3ccc4ccccc4n3)CC2)c(C)c1	0.0
-2.9	0.5	CC12CCC(=O)C=C1CCC1C2C(O)CC2(C)C1CCC2(O)C(=O)COC(=O)CCC1CCCC1 (stereo unspecified)	-0.7
-10.1	-3.3	COc1ccccc1NC(=O)C(C)OC(=O)c1cc2ccccc2[nH]1 (stereo unspecified)	-29.6
-7.1	2.2	COCCN(C(=O)COC(=O)/C=C/c1ccc(Cl)c(Cl)c1)c1c(N)n(Cc2ccccc2)c(=O)[nH]c1=O	-6.8
-8.3	-1.5	O=C(CNc1cccc(S(=O)(=O)N2CCCCC2)c1)Nc1ccc(C(F)(F)F)cc1	-26.0
27.6	1.5	O=C(Cc1cccc(NC(=O)C2CCN(C(=O)C3CC3)CC2)c1)Nc1cccc(C(=O)N2CCCCC2)c1	5.3
17.0	-2.8	Cc1ccccc1C(=O)N1CCC(C(=O)Nc2ccc(S(=O)(=O)N3C(C)CCCC3C)cc2)CC1 (stereo unspecified)	-10.5
-7.7	-1.2	N#Cc1ccc(OCC(=O)Nc2ccc(S(=O)(=O)N3CCOCC3)cc2)cc1	3.9
22.5	-1.8	Cc1ccc(Cc2c(-c3ccc(F)cc3)nc3c(C)cc(Br)cn23)cc1	2.6
13.4	2.5	O=C(Nc1ccncc1)C1CCN(S(=O)(=O)c2cccc(C(F)(F)F)c2)CC1	-4.5
-4.1	1.4	COc1ncnc2c1ncn2CCCN(C)CCc1ccccn1	7.2
-8.0	-2.2	CS(=O)(=O)N(CC(=O)N1CCCC1)c1ccc(F)cc1	-1.0
-16.3	-11.6	Cc1cc(NC(=O)CSCC(=O)Nc2cc(C(F)(F)F)ccc2N2CCCCC2)no1	-7.1
-4.9	-1.5	CCCS(=O)(=O)NC(=O)C1(C)CCN(C(=O)c2ccc3ccccc3n2)C1 (stereo unspecified)	6.0
-10.8	4.5	Cc1ccc([C@H]2N[C@]3(CCCN(Cc4cccn4C)C3=O)[C@H]3C(=O)N(Cc4ccccc4)C(=O)[C@@H]23)cc1	4.0

Structural class, the entries above with a Cl atom
UUG fidelity	MT1-MMP act inh	Compound	MT1-MMP act inh RFP
-4.3	-4.7	CN(Cc1cccc(Cl)c1Cl)C(=O)c1ccccc1SCC(=O)N1CCCC1	-7.6
-0.9	3.3	CC1(C2CC2)NC(=O)N(CC(=O)Nc2cc(S(=O)(=O)N3CCCCC3)ccc2Cl)C1=O (stereo unspecified)	-5.6
-6.9	-0.7	CC1(Cc2ccc(S(C)(=O)=O)cc2)C(=O)Nc2ccc(Cl)cc21 (stereo unspecified)	0.5
-23.3	0.7	Cc1cc(C(=O)NNC(=O)c2ccc(Cl)cc2)c2ccccc2n1	-3.2
2.3	-2.5	COc1ccc(C(=O)N2CCN(c3cccc(Cl)c3)CC2)cc1S(=O)(=O)NC1CC1	-5.0
10.1	2.4	O=C(Nc1ccc(Cl)c(S(=O)(=O)N2CCOCC2)c1)[C@@H]1CCCN1C(=O)c1cccs1	2.4
-4.0	-13.6	O=C(CN1CCCc2ccccc21)Nc1cc(S(=O)(=O)N2CCCC2)ccc1Cl	-6.3
1.1	-0.8	Cc1cc2c(cc1C)N(C(=O)CCl)CC(=O)N2	0.2
-7.1	2.2	COCCN(C(=O)COC(=O)/C=C/c1ccc(Cl)c(Cl)c1)c1c(N)n(Cc2ccccc2)c(=O)[nH]c1=O	-6.8
